Screens (PubChem)
Sa growth inh – S. aureus growth inhibition at 42 and 30 °C, primary screen, LtaS inhibitor project, RN4220, two temperatures; OD600, 20 h, 42 °C; active compounds read low; relative growth, % (concentration not given with the values); actives 0.53% (n = 170,000);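 active means growth at 42 °C up to 50% and 20 or more points under that at 30 °C, or under 10% at both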;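 further: 300 nL library stock went into each well; scaled to the means of positive and negative controls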
HCMV UL50-53 inh – inhibitors of HCMV UL50-UL53 interaction, biochemical, HTRF; HCMV UL50-UL53 nuclear egress complex (human cytomegalovirus); normalized percent inhibition; inhibition, % (no concentration beside the values); actives 0.15% (n = 190,000);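 active means both replicates at 50% or more, plus weaker picks with an unusually low signal ratio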;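 further: stock transfer was 100 nL into about 20 µL; 0% = negative control wells and 100% = wells with untagged competitor protein; inactives centre near -12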
GIV Gai3 FP – inhibitors of GIV peptide binding to Galpha-i3, primary screen, biochemical, fluorescence polarization, FITC-GIV GBA peptide, rat Galphai3; Guanine nucleotide-binding protein G(i) subunit alpha-3 (Rattus norvegicus), P08753; 90 min; active compounds read low; scaled: aluminum fluoride 0%, vehicle 100%; percent of control (FP), % (no concentration beside the values); actives 0.42% (n = 210,000); AID 1224905, 2016;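 active means replicate mean at 85% of control or lower, very high polarization wells dropped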;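 further: wells of about 15 µL received 100 nL stock; the first replicate is given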
Target sequence (P08753 whole entry, looked up): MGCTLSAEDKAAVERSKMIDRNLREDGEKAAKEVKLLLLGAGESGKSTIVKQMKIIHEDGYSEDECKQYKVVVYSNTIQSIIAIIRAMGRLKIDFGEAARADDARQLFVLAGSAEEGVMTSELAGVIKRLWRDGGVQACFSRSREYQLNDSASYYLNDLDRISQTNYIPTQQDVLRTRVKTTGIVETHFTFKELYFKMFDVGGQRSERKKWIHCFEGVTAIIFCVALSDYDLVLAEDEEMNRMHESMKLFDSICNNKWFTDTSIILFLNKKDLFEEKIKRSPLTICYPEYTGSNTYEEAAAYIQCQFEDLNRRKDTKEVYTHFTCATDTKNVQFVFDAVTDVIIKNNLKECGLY
Sa growth inh second temp – further read-out of Sa growth inh, marked with its call; relative growth, %; measured here: growth at 30 °C;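 optical density after 20 h as mean of two plates; 100% = untreated growth and lower means inhibition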
* marks the source's active call; other numbers are inactive results; nt = no result given; & = joins results of further samples.

| cpd | Molecule | Sa growth inh | Sa growth inh second temp | HCMV UL50-53 inh | GIV Gai3 FP |
| --- | --- | --- | --- | --- | --- |
| 1 | COC(=O)c1ccc(Nc2nc3ccc(C)cc3n3cnnc23)cc1 | 93 | 75 | -23 | 107 |
| 2 | O=C(CC1SCCNC1=O)Nc1ccc(Cl)c(Cl)c1 (centres undefined) | 93 | 92 | 10 | nt |
| 3 | Nc1c(N(C(=O)C2CCCO2)C2CCCC2)c(=O)[nH]c(=O)n1Cc1ccccc1 (centres undefined) | 90 | 94 | -26 | nt |
| 4 | CCCCN(C)CCNC(=O)c1ccc2c(=O)n(CCc3ccccc3)c(=O)[nH]c2c1 | 96 | 86 | -5 | 108 |
| 5 | O=C(Nc1ccc2c(c1)OCCO2)C1CCCN(c2nc3ccccc3nc2C(F)(F)F)C1 (centres undefined) | nt | nt | 5 | 108 |
| 6 | CCCCNC(=O)c1cn(CC)c2ccc(S(=O)(=O)N3CCCC3)cc2c1=O | 107 | 90 | -8 | 104 |
| 7 | Cc1ccc(C2C3=C(COC3=O)Nc3c2c(=O)n(C)c(=O)n3C)cc1 (centres undefined) | 96 | 79 | -1 | nt |
| 8 | Cc1cc(-c2nnc(SCC(=O)c3cc4ccccc4oc3=O)o2)no1 | 95 | 68 | -39 | 103 |
| 9 | COc1nc2ccccc2nc1N1CCC(C(=O)n2nc(C)cc2C)CC1 | nt | nt | -23 | 104 |
| 10 | Cc1nn2c(=O)cc(COC(=O)c3cccc(NC(=O)COc4ccc(C)c(C)c4)c3)nc2s1 | 89 | 92 | nt | 104 |
| 11 | OCCCc1cn[nH]c1C(F)(F)F | nt | nt | -5 | 98 |
| 12 | Clc1ncc(CN2CCOCC2)s1 | nt | nt | -11 | 105 |
| 13 | Cc1ccc(Cn2cc3c(n2)-c2c(oc(C(=O)NCCCN4CCN(c5ccc(F)cc5)CC4)c2C)CC3)cc1 | 104 | 96 | 3 | 110 |
| 14 | Cc1noc(C)c1CCNC(=O)CCCc1nnc(C(=O)Nc2cccc(Cl)c2)s1 | nt | nt | -30 | 104 |
| 15 | CC1CN(C(=O)Nc2ccc3snnc3c2)c2ccccc21 (centres undefined) | 87 | 76 | nt | 96 |
| 16 | CC(C)n1c(=O)[nH]c2cc(-c3noc(/C=C/c4ccccc4)n3)ccc21 | nt | nt | -35 | 103 |
| 17 | Cc1ccc(S(=O)(=O)Nc2cccc3ccc(-n4nc(C)cc4C)nc23)cc1 | 148 | 98 | -5 | 105 |
| 18 | O=C(Nc1ccc(Br)cc1F)c1ccc(CN2CC(=O)N3CCCCC3C2=O)cc1 (centres undefined) | nt | nt | 2 | 105 |
| 19 | COc1ccc2cc(C(=O)Nc3ccc(OC)c(NC(=O)c4ccccc4C)c3)[nH]c2c1 | nt | nt | -35 | 103 |
| 20 | Cc1ccc2c(=O)c(C(=O)c3ccccc3)c[nH]c2n1 | 85 | 80 | 40 | 204 |
| 21 | COc1ccc2oc(=O)cc(CN(C)c3c(C)cccc3C)c2c1 | 74 | 65 | -18 | 115 |
| 22 | COc1ccc(C(=O)/C(=N\O)c2ccccc2)cc1 | 112 | 102 | -13 | 102 |
| 23 | COc1cc(C2C(C(=O)Nc3ccc(C)cc3C)=C(C)Nc3nc(SCc4ccccc4)nn32)cc(OC)c1OC (centres undefined) | 96 | 86 | -129 | 99 |
| 24 | Cc1cc(S(=O)(=O)Nc2ccc(O)c(Sc3nc4ccccc4s3)c2)ccc1Cl | 99 | 103 | -29 | 104 |
| 25 | CC(OC(=O)C1CCN(S(=O)(=O)c2ccc3c(c2)OCCO3)CC1)C(=O)Nc1ncc(Cl)cc1Cl (centres undefined) | 82 | 94 | -30 | nt |
| 26 | Fc1ccccc1N1CCN(c2nccn3nc(-c4ccc(Br)cc4)cc23)CC1 | 90 | 94 | -12&-18 | 110&112 |
| 27 | Nc1ccc(C(=O)OCC(=O)c2ccc(Br)cc2)c(O)c1 | 101 | 87 | -4 | nt |
| 28 | Cc1ccc(NC(=O)Nc2cccs2)c(C)c1 | 93 | 79 | -4 | 104 |
| 29 | CCOC(=O)c1cc(-c2ccc(F)cc2)n(CCC(=O)NCc2ccc(C)cc2)c1C | 90 | 26 | nt | 99 |
| 30 | CCOc1cc(C2C(C(=O)OC)=C(C)NC3=C2C(=O)c2ccccc23)c(Br)cc1O (centres undefined) | 76 | 85 | nt | 101 |
| 31 | CCOc1ccc2[nH]c3nc(SCC4CCCO4)nnc3c2c1 (centres undefined) | 127 | 80 | -19 | 107 |
| 32 | CC(=O)c1ccc(NC(=O)c2cc(-c3ccccc3)nc3ccccc23)cc1 | nt | nt | -21 | 108 |
| 33 | CCn1c(-c2cccnc2)n[nH]c1=S | 89 | 83 | -37 | 102 |
| 34 | CC(C)N1CSC(=S)N(Cc2ccccc2)C1 | 124 | 81 | nt | 101 |
| 35 | OCc1ccc(-c2nn(Cc3ccccc3)c3ccccc23)o1 | nt | nt | -7&-7&-10&-22 | 101 |
| 36 | COc1ccc(C2CC(=O)C3=C(C2)Nc2onc(C)c2C3c2cccc(Br)c2)cc1OC (centres undefined) | nt | nt | -17 | 108 |
| 37 | Cc1cccc(N2CC(c3nc4ccc(C)cc4[nH]3)CC2=O)c1 (centres undefined) | 106 | 82 | -14 | 102 |
| 38 | N/C(=N\c1nc2c(c(=O)[nH]1)CCC2)Nc1cccc(Cl)c1 | 120 | 88 | -9 | 107 |
| 39 | CN(C)/C=C1\CCCCN2C(=O)/C(=C\c3ccc(Cl)cc3)N=C12 | 115 | 78 | -91 | nt |
| 40 | CC(C)CN(CC(C)C)C(=O)c1ccc2c(c1)NC(=O)/C(=C/c1ccccc1)S2 | 80 | 69 | nt | 106 |
| 41 | O=C1c2ccccc2C(O)(c2ccccc2)N1CCc1ccccc1 (centres undefined) | 110 | 96 | -2 | 108 |
| 42 | CN(Cc1cccs1)C(=O)c1ccc2c(c1)OCO2 | 80 | 93 | -28 | nt |
| 43 | COc1ccc(C2(C(=O)N3CCCC3)CCCC2)cc1OC | 97 | 106 | 6 | 105 |
| 44 | O=C(O)CSc1cc(-c2ccccc2)nc(SCC(=O)O)n1 | 91 | 84 | -3 | 94 |
| 45 | COc1ccc(C2=NOC(C(=O)N(C)Cc3ccccc3)C2)cc1OC (centres undefined) | 86 | 91 | -29 | 100 |
| 46 | CC(C)(C)OC(=O)N1CCC(C(=O)Nc2ccc(OC(F)(F)F)cc2)CC1 | 75 | 85 | -12 | nt |
| 47 | NNC(=O)CNC(c1ccccc1)c1cc(Br)ccc1N (centres undefined) | 104 | 76 | 0 | 103 |
| 48 | O=C(NCc1nnc2c(Cl)cc(C(F)(F)F)cn12)c1ccccc1 | 94 | 102 | -4 | 109 |
| 49 | CC(=O)Nc1ccccc1-c1nnc(SC(C)C(=O)Nc2ccc(F)cc2)[nH]c1=O (centres undefined) | nt | nt | -27 | 98 |
| 50 | Cc1ccccc1Nc1nc(N)nc(CSc2nc3ccccc3c(=O)n2C)n1 | 100 | 91 | -8 | nt |
| 51 | CS(=O)(=O)N(CC(=O)N1CCC(C(N)=O)CC1)c1cccc(C(F)(F)F)c1 | 97 | 86 | -34 | 100 |
| 52 | Nc1nc(SCC(=O)NC2CCCCC2)n[nH]1 | 102 | 88 | -31 | nt |
| 53 | Cc1ccc(-c2noc(-c3nnn(CC(=O)Nc4cccc(C(F)(F)F)c4)c3N)n2)cc1 | 134 | 78 | nt | 113 |
| 54 | O=C(c1ccc(NS(=O)(=O)c2cccc3cccnc23)cc1)N1CCCCC1 | 86 | 91 | -5 | 100 |
| 55 | CCOc1cc(/C=C2\N=C(c3ccc(C)cc3)OC2=O)cc(Br)c1OC(C)=O | nt | nt | -30 | 105 |
| 56 | Cc1ccc(OCCN2CCN(c3nc(NCc4ccccc4)c4ccccc4n3)CC2)cc1 | 33 | 0 | -6 | 107 |
| 57 | COc1ccc(Cc2nnc(C(=O)N3CCN(c4ccc(C)cc4C)CC3)o2)cc1OC | 83 | 83 | -12 | 102 |
| 58 | CCOC(=O)Cn1cnc2c(sc3nc(C)cc(C)c32)c1=O | 96 | 94 | -13&-15 | 105&95 |
| 59 | Cn1c(SCC(=O)Nc2ccccc2C#N)nnc1-c1ccccc1 | 114 | 81 | -10 | 106 |
| 60 | Cc1ccc(S(=O)(=O)n2nc(C)c(S(=O)(=O)N3CCCCCC3)c2C)cc1 | 93 | 97 | nt | 107 |

The closing 5 entries of the section before are carried over, then new ones follow:
entry	Structure	Sa growth inh	Sa growth inh second temp	HCMV UL50-53 inh	GIV Gai3 FP
56	Cc1ccc(OCCN2CCN(c3nc(NCc4ccccc4)c4ccccc4n3)CC2)cc1	33	0	-6	107
57	COc1ccc(Cc2nnc(C(=O)N3CCN(c4ccc(C)cc4C)CC3)o2)cc1OC	83	83	-12	102
58	CCOC(=O)Cn1cnc2c(sc3nc(C)cc(C)c32)c1=O	96	94	-13&-15	105&95
59	Cn1c(SCC(=O)Nc2ccccc2C#N)nnc1-c1ccccc1	114	81	-10	106
60	Cc1ccc(S(=O)(=O)n2nc(C)c(S(=O)(=O)N3CCCCCC3)c2C)cc1	93	97	nt	107
61	Cc1cc2occ(CC(=O)Oc3ccc4c(c3)OCO4)c2cc1C	106	101	11	nt
62	Cc1ccc(-n2cc(C(=O)OCc3ccc(F)c(F)c3)c3ccccc3c2=O)cc1	101	90	nt	108
63	Cc1ccc(C2=CC(c3ccccc3)SC(N)=N2)cc1 (centres undefined)	85	58	-10	nt
64	CN(C)c1cccc(C(=O)OCc2cc(=O)oc3cc(O)ccc23)c1	64	75	-5	nt
65	O=C(Nc1ccc(OC(F)(F)F)cc1)Oc1ccccc1N1CCOCC1	3.7*	10*	27	97
66	COc1ccc(CCC(=O)Nc2ccc3nc4n(c(=O)c3c2)CCCC4)cc1	104	100	3	108
67	CCN(C(=O)c1cnccc1C(F)(F)F)c1c(C)cccc1C	85	94	-5	109
68	CS(=O)(=O)Nc1ccccc1C(=O)OCC(=O)Nc1ccccc1C(F)(F)F	111	86	-34	nt
69	O=C1CCc2cc(C(=O)CSc3ccc(Cl)cc3Cl)ccc2N1	101	96	15	102
70	O=C(CN1C(=O)COc2ccc(Cl)cc21)N1CCc2ccccc21	106	83	-13	104
71	O=C(NC1CC2CCC1CC2)c1ccccc1 (centres undefined)	96	88	-13	101
72	CSc1ccc(CCNC(=O)c2ccc(-c3nc(COc4ccccc4)c(C)o3)cc2)cc1	91	99	nt	102
73	CC1=[N+]([O-])C(C)(C)CC(C)c2ccccc21 (centres undefined)	92	88	-13	106
74	Cc1c(-c2ccccc2)nc2ccccc2c1C(=O)O	67	62	-5	117
75	Cc1cc(C)c2c(n1)SCCN2C(=O)Nc1ccc(Br)cc1	nt	nt	-4	107
76	CCn1c2ccccc2c2cc(NC(=O)CSc3nncn3C)ccc21	136	92	-5	nt
77	COc1ccc2nc(C(=O)O)sc2c1	106	89	-2	nt
78	O=C(CC12CC3CC(CC(C3)C1)C2)N1CCCC1CO (centres undefined)	90	90	-8	nt
79	O=C(NCc1cccnc1)c1cc(-c2ccccn2)nc2ccccc12	110	88	-26	nt
80	O=C(c1cc(-c2ccc(F)cc2)n[nH]1)N1CCN(S(=O)(=O)c2ccccc2)CC1	nt	nt	-8	93
81	CC(C)(C)c1cc(C(=O)OCCN2CCCCC2)cc(C(C)(C)C)c1	22*	50*	nt	100
82	Cc1cc(S(=O)(=O)NCCc2ccccc2)c(C)s1	83	100	6	99
83	CCOC(=O)NC(=O)c1cn(Cc2cccs2)c(=O)n(C)c1=O	96	86	-16	111
84	CCN1C(=O)/C(=c2/s/c(=C3\SC(C)=C(C)N3CC)c(=O)n2CC)N(C)C1=S	86	90	-23	93
85	CC(C)(C)C(=O)N1CCCC1C(=O)Nc1ccccc1 (centres undefined)	126	97	3	nt
86	Cc1ccccc1N(CC(=O)N1CCOCC1)S(C)(=O)=O	98	84	-1	nt
87	O=C(NCc1ccccc1)N1c2ccccc2Sc2ccccc21	119	81	nt	99
88	Cc1cc(C)c2nc(N(Cc3cccnc3)C(=O)CCOc3ccccc3)sc2c1	114	88	nt	101
89	O=C(NCc1cccs1)C1CCN(C(=O)N2CCOc3ccc(Cl)cc32)CC1	123	97	-4	105
90	CCC(c1nnnn1CCc1ccccc1)N(Cc1ccco1)Cc1cc2cc(C)ccc2[nH]c1=O (centres undefined)	89	95	-17	102
91	Cc1cc(NCCNc2ccccc2)c2ccc3ccccc3c2n1	86	96	nt	110
92	O=P1(NCCO)C=C(c2ccccc2)OC(c2ccccc2)=C1	55	73	-33	nt
93	Cc1ccc(-c2nc3ccc(S(N)(=O)=O)cc3[nH]2)s1	137	100	-18	nt
94	O=C(NCCc1c[nH]c2ccccc12)C(=O)NCC(c1cccnc1)N1CCOCC1 (centres undefined)	nt	nt	-7	103
95	O=C(COC(=O)c1ccccc1NC(=O)c1ccco1)Nc1ccccc1	88	84	-23	nt
96	CC1(C)CC(=O)C2=C(C1)OC1=C(C2)C(=O)CC(C)(C)C1	82	85	-16	99
97	COC(=O)C1C(=O)CC(=O)CC1c1ccco1 (centres undefined)	101	110	3	108
